High-throughput results as filed in PubChem.
NS1 function inh: inhibitors of influenza NS1 protein function. AID 2326. S. cerevisiae slowed by influenza A NS1, growth recovery by OD600. Potency, µM (series often up to 46.1 µM), inactives show top-dose activity, positive = more growth. hit rate 0.4% among 270,000; active means well fitted rising curve with a large enough effect; inconclusive means small, poorly fitted or top-dose-only effect; inactive means no such curve, though single readings can be large or run the other way; also: nearly all actives have a fitted effect of over 50% in size
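A cell-based growth assay was used: compounds that relieve NS1-induced slow growth of budding yeast raise OD600. Assay medium was yeast nitrogen base with ammonium sulphate and -URA supplement, pH 6.0, with 2% galactose.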
Lassa entry inh: blocks Lassa virus binding to or entry into cells; Lassa virus pseudotype entry inhibition, cell reporter; control for the full effect not named in the record; Potency, µM (top dose mostly 37.9 µM), for the others: at the top dose activity change, negative = inhibition, actives largely listed as inhibitors; hit rate 1.2% among 300,000; AID 540256; active means well fitted inhibition curve with a large enough effect; inconclusive means small, poorly fitted or top-dose-only effect, or effect the other way; inactive means flat fitted curve, though single readings scatter; tested in HEK293 cells; also: % is scaled to controls: 0 for no effect and ±100 for the full control effect; nearly all actives have a fitted effect of over 50% in size; luciferase read-out
SARS PLP yeast: SARS-CoV PLP inhibition in yeast; S. cerevisiae expressing SARS-CoV PLpro, growth rescue; control for the full effect not named in the record; Potency, µM (doses to about 32.9 µM), for the others: top-dose activity, positive = growth rescue; hit rate 0.19% among 330,000; AID 485353; active means well fitted rising curve with a large enough effect; inconclusive means small, poorly fitted or top-dose-only effect; inactive means no such curve, though single readings can be large or run the other way; also: 0% is about no effect; nearly all actives have a fitted effect of over 55% in size; growth read by luminescence after 48 h
RE007 growth inh: less growth of the S. pombe RE007 Vpr strain; S. pombe RE007 Vpr strain, BacTiter-Glo ATP luminescence, 24 h; control for the full effect not named in the record; Potency, µM (series often up to 92.2 µM), for inactives: top-dose activity change, negative = less growth; hit rate 0.21% among 360,000; active = well fitted falling curve with a large enough effect; inconclusive = small, poorly fitted or top-dose-only effect; inactive = no such curve, though single readings can be large or run the other way;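 also: % is scaled to controls: 0 for no effect and ±100 for the full control effect; nearly all actives have a fitted effect of over 50% in size; the assay follows cell death caused by Vpr and the record does not say whether a fall means rescue or toxicity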
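Fission yeast strain RE007, carrying one chromosomally integrated HIV-1 vpr copy, was seeded at OD 0.01 in PMG+AL medium with 23 nL pinned compound. After 24 h at 30 °C and 99% humidity, viability was read by BacTiter-Glo luminescence.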
Cruzain inh noDet: inhibitors of Trypanosoma cruzi cruzain without detergent; hit rate 2.3% among 200,000; Potency, µM, without a hit: max response, negative = inhibition, usual class: inhibitors; purified cruzain, Z-FR-AMC fluorescence, no detergent; P25779;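 also: plate controls were enzyme without inhibitor for no effect and buffer without enzyme for full effect; nearly all actives have a fitted effect of over 40% in size; top concentration of the series not given in the record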
Target sequence (P25779 123-467 limits assumed): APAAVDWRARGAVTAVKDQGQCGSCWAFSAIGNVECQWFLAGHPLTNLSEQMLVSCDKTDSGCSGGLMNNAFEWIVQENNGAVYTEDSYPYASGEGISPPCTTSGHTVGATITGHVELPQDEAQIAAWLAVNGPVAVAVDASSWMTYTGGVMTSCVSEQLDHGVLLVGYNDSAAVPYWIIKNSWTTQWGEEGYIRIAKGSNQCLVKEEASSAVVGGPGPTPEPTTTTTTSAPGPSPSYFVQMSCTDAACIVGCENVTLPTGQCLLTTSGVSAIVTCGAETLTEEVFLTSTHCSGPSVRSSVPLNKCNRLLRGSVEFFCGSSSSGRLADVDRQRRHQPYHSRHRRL
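Purified cruzain at 1.5 nM, pre-incubated 15 min with compound at room temperature in 100 mM sodium acetate pH 5.5, 5 mM DTT, 0.00005% Triton X-100. Reaction started with 2 uM Z-FR-AMC; AMC fluorescence increase over 60 s gives rate.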
2A StopGo: lowers the luciferase signal of an FMDV 2A StopGo reporter. AID 1159524. Potency, µM (doses to about 57.9 µM), without a hit: at the highest dose signal change, negative = less light. human cells with a luciferase reporter of 2A StopGo recoding; control for the full effect not named in the record. hit rate 1.2% among 410,000; active = well fitted falling curve with a large enough effect; inconclusive = small, poorly fitted or top-dose-only effect; inactive = no such curve, though single readings can be large or run the other way; tested in HEK293T cells; also: % is scaled to controls: 0 for no effect and ±100 for the full control effect; nearly all actives have a fitted effect of over 45% in size; luciferase light after 4 h
Cruzain inh Det: cruzain (T. cruzi) inhibition with detergent. P25779. purified cruzain, Z-FR-AMC fluorescence, 0.01% Triton. Potency, µM, without a hit: max response, negative = inhibition, actives largely listed as inhibitors. hit rate 0.43% among 200,000. AID 1478;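 also: plate controls were neutral wells for no effect and buffer without enzyme for full effect; nearly all actives have a fitted effect of over 40% in size; top concentration of the series not given in the record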
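Detergent-containing arm of a paired screen for aggregation-based inhibition: 0.01% Triton X-100 present. Cruzain at 1.5 nM cleaved 2 uM Z-FR-AMC at pH 5.5 with 5 mM DTT; AMC fluorescence gain over 60 s measured activity.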
Marburg entry inh: inhibitors of Marburg virus binding or cell entry | Marburg virus pseudotyped entry inhibition, cell reporter; control for the full effect not named in the record; about a third of the inactives were read at about 46 µM | Potency, µM (series often up to 37.8 µM), for inactives: at the highest dose activity change, negative = inhibition, hits mostly inhibitors | hit rate 1.8% among 300,000; active = well fitted inhibition curve with a large enough effect; inconclusive = small, poorly fitted or top-dose-only effect, or effect the other way; inactive = flat fitted curve, though single readings scatter; tested in HEK293 cells; about a fifth of its hits are not listed in these tables; also: % is scaled to controls: 0 for no effect and ±100 for the full control effect; luciferase read-out
* marks the source's active call; other numbers are inactive results; u = inconclusive; x = no result given; & = joins results of further samples; [ ] = remark or other dose. Unless noted, calls follow the shape of the dose curve; as a rule, active = well fitted curve in the direction sought with a large enough effect; inconclusive = small, poorly fitted or top-dose-only effect, or another doubt; inactive = no such curve, though single readings can be large; an effect the other way counts as inactive or inconclusive. Potency is read from the fitted curve at half-maximal effect.

SMILES	NS1 function inh	Lassa entry inh	SARS PLP yeast	RE007 growth inh	Cruzain inh noDet	2A StopGo	Cruzain inh Det	Marburg entry inh
Cc1ccccc1-n1c(C)cc(/C=C2/C(=O)NC(=O)N(Cc3ccco3)C2=O)c1C	17%	x	6%	4%	4%	-4%	-8.4%	0%
O=C(Nc1nnc(S(=O)(=O)N2CCCCC2)s1)c1ccccc1Br	0%	8%[46.1 µM]	-9%	-8%	-2%	-24%&-5%	0.2%	x
CC(C)NC(=S)NCc1cccnc1	7%	22%	-18%	7%	u	-7%	1.4%	0%
CCCn1cnc2c(c1=O)c1nc3ccccc3nc1n2Cc1ccccc1OC	-68%	x	0%	x	-2%	x	-0.1%	x
CC1(C)C(=O)C2(CCCC2)C(=O)OC1c1ccco1 (stereo unspecified)	-2%	17%	2%	13%	1%	0%	12%	20%[46.1 µM]
CCOC(=O)N1CCC(NC(=O)CCc2cn(C)c3ccccc23)CC1	-3%	-2%	4%	10%	-1%	-3%	0.5%	20%
CCOn1c(=O)c(-c2cc(OC)ccc2OC)[n+]([O-])c2ccccc21	-2%	x	0%	1%	x	-4%	x	x
COc1ccccc1OCCn1c(NC(=O)c2ccccc2Cl)nc2ccccc21	x	-29%[46.1 µM]	x	x	20µM*	32%[activator]	-6.5%	u
CCOC(=O)c1cc2c(ccn2C)n1CC(=O)N1CCN(c2ccccc2OC)CC1	15%	x	0%	x	u	x	-2.5%	0%
COc1cc2c(C(=O)N(C)c3ccc(F)cc3)cn(C)c(=O)c2cc1OC	-2%	0%	-2%	1%	x	0%	x	0%
COc1cccc(C2CC(c3ccccc3OC)n3ncnc3N2)c1 (stereo unspecified)	-3%	x	22%	1%	7%	-14%	5.2%	x
CCC(C)NC(=O)Cn1c(=O)cc(-c2ccccc2)c2c(C)nn(C)c21 (stereo unspecified)	x	u	x	x	22%	-15%	-4.9%	x
O=C(CN1CCN(c2ccc(O)cc2)CC1)N1CCc2ccccc21	9%	-3%	-4%	1%	x	13%	x	0%[46.1 µM]
CCCCNC(=O)CSc1nnc(Cc2ccccc2)n1CC	1%	-8%	-5%	-1%	9%	15%	0.2%	4%
Cc1ccccc1-n1c(=O)cc(N2CC(C)OC(C)C2)[nH]c1=O (stereo unspecified)	6%	-8%	2%	-3%	-2%	-4%	3.9%	19%
Cc1ccc(Cl)cc1Nc1nn2c(=O)c3ccc(C(=O)NCc4ccc(F)cc4)cc3nc2s1	x	4%[46.1 µM]	x	x	8%	-6%	-1.0%	x
Cc1ccc(C2=NCCNC2=O)c(C)c1	0%	-5%	4%	2%	-4%	13%	2.7%	5%
Cc1ccccc1C(=O)Nc1ccc2nc3n(c(=O)c2c1)CCCC3	-1%	x	0%	-10%	x	15%	x	x
CCOC(=O)C1=C(CN2CCN(c3cccc(Cl)c3)CC2)NC(=O)NC1c1ccc(Cl)cc1 (stereo unspecified)	x	6%[46.1 µM]	x	x	-13%	-27%	-1.1%	29%[46.1 µM]
COc1ccc(-c2c[n+]3c(n2-c2ccccc2)CCCCC3)cc1	4%	-23%	-9%	7%	-8%	u	-0.5%	u
C=CCc1cc(C)ccc1OCCOCCN1CCN(C)CC1	-2%	x	-2%	11%	x	-4%	x	x
CCOC(=O)C(=O)Cc1nc2ccccc2s1	-42%	x	-3%	-21%	x	0%	x	x
N#CCc1ccc(NC(=O)/C=C/c2ccc([N+](=O)[O-])o2)cc1	x	7.9µM*	0%	7%	x	u	x	u
O=C(Nc1c2c(nn1-c1ccc(Cl)cc1)CS(=O)(=O)C2)C1CC1	2%	6%	4%	-10%	x	2%	x	-5%
CNCc1cn2cc(Cl)ccc2n1	8%	-8%	3%	13%	-6%	-2%	0.0%	6%

Later entries
SMILES	NS1 function inh	Lassa entry inh	SARS PLP yeast	RE007 growth inh	Cruzain inh noDet	2A StopGo	Cruzain inh Det	Marburg entry inh
COCCN1CCN(C(=O)c2cc(COc3ccc(Cl)cc3OC)on2)CC1	-9%	12%	5%	7%	x	78%[activator]	x	u
Cc1ccc(Cn2ccnc2SCC(=O)Nc2nc3ccccc3s2)cc1	x	-20%[46.1 µM]	x	x	-8%	10%	-7.2%	x
CCCNc1c(NS(=O)(=O)c2ccc(C3CCCCC3)cc2)c(=O)oc2ccccc12	5%	x	4%	13%	x	-24%	x	x
COc1ccccc1C(=O)NCC(=O)NCCCN1CCOCC1	x	9%	6%	-5%	x	-12%	x	5%
C=CCN1C(=O)c2oc3ccccc3c(=O)c2C1c1ccc(O)c(OC)c1 (stereo unspecified)	18%	x	1%	17%	-17%	-9%	1.5%	x
CCC(Sc1nc2ccccc2c(=O)n1CC1CCCO1)C(=O)NCc1cccnc1 (stereo unspecified)	-6%	-17%	-17%	0%[3.69 µM]	3%	18%	11%	u
CN(C)C(=O)c1cn(-c2ccccc2)nc1-c1cc2ccccc2o1	-1%	-21%	-2%	-23%	x	-13%	x	u
CCN(CC)Cc1c(O)ccc2c(=O)c(Oc3ccccc3OC)coc12	4%	0%	9%	-12%	-2%	-14%	-0.9%	12%
Cc1ccc(OCC(=O)Nc2ccccc2N2CCCC2)c(C)c1	-32%	u	-4%	102%	x	-4%	x	u
C#CCn1ccc(O)c(Cc2c(F)cccc2Cl)c1=O	0%	-2%[46.1 µM]	-1%	-15%	x	33%[activator]	x	10%[46.1 µM]
CC(C)(C)NC(=O)NC(=O)Cn1cc(C(F)(F)F)ccc1=O	4%	-2%	8%	7%	-11%	-7%	6.3%	12%
COc1ccc2ccc(OC)c(/C=N/n3cnnc3)c2c1	-33%	x	-4%	1%	x	-6%	x	x
COc1ccccc1-c1coc2c(CN3CCCC(C)C3)c(O)ccc2c1=O (stereo unspecified)	8%	x	2%	5%	x	-7%	x	x
O=C(NCCO)c1ccc(-c2nnc(N3CCOCC3)c3ccccc23)cc1	-7%	-1%	3%	-11%	-1%	7%	4.5%	-8%
COc1cccc(C(=O)NCCNC(=O)c2ccco2)c1	4%	8%[46.1 µM]	1%	9%	x	6%	x	u
COc1cccc(C2(C)NC(=O)N(CC(=O)c3cc(C)n(C4CC4)c3C)C2=O)c1 (stereo unspecified)	x	-10%	3%	-15%	x	-18%	x	16%
COCCn1c(SCC(=O)Nc2sccc2C(N)=O)nc2cc(Cl)ccc2c1=O	24%	u	-1%	-12%	u	u	-9.8%	u
CCc1ccc(NC(=O)c2cc(C(C)=O)n3ccccc23)cc1	x	2%[46.1 µM]	x	x	u	24%	-8.9%	x
CCOc1ccc(OCc2ccc(C(=O)N(C)c3ccccc3)o2)cc1	-19%	-26%[46.1 µM]	-12%	0%	x	-9%	x	7%[46.1 µM]
O=C(CCCN1C(=O)CCC1=O)Nc1cccc(C(F)(F)F)c1	-2%	-6%	1%	-13%	1%	-19%	-2.5%	6%
CCCN1CCC(NC(=O)Cc2ccccc2C)CC1	-3%	x	0%	18%	x	-18%	x	x
Cc1cccc(-c2nc3ccc(C(=O)NCCN4CCN(C)CC4)cc3nc2-c2cccc(C)c2)c1	-4%	x	-1%	-4%	x	0%	x	x
COc1cc2c(c(OC)c1OC)-c1ccc(SC)c(=O)cc1C(NC=O)CC2 (stereo unspecified)	x	-26%	x	-24%	x	-8%	x	x
COc1ccccc1NC(=O)N1CCCC1C(=O)Nc1nnc(C(C)C)s1 (stereo unspecified)	-5%	0%	-1%	-3%	-1%	17%	6.6%	10%
OCC1C2c3ccccc3C(c3ccccc32)C1CO (stereo unspecified)	4%	5%	1%	5%	x	-11%	x	u

Exported with values under each structure: three of the compounds above
Values run as follows: NS1 function inh	Lassa entry inh	SARS PLP yeast	RE007 growth inh	Cruzain inh noDet	2A StopGo	Cruzain inh Det	Marburg entry inh
> COc1cccc(C(=O)NCCNC(=O)c2ccco2)c1
 : 4%	8%[46.1 µM]	1%	9%	x	6%	x	u
> COc1cccc(C2(C)NC(=O)N(CC(=O)c3cc(C)n(C4CC4)c3C)C2=O)c1 (stereo unspecified)
 : x	-10%	3%	-15%	x	-18%	x	16%
> COCCn1c(SCC(=O)Nc2sccc2C(N)=O)nc2cc(Cl)ccc2c1=O
 : 24%	u	-1%	-12%	u	u	-9.8%	u

Arranged by molar mass (ascending): part of the list above.
SMILES	NS1 function inh	Lassa entry inh	SARS PLP yeast	RE007 growth inh	Cruzain inh noDet	2A StopGo	Cruzain inh Det	Marburg entry inh
CCCCNC(=O)CSc1nnc(Cc2ccccc2)n1CC	1%	-8%	-5%	-1%	9%	15%	0.2%	4%
COc1ccccc1NC(=O)N1CCCC1C(=O)Nc1nnc(C(C)C)s1 (stereo unspecified)	-5%	0%	-1%	-3%	-1%	17%	6.6%	10%
Cc1cccc(-c2nc3ccc(C(=O)NCCN4CCN(C)CC4)cc3nc2-c2cccc(C)c2)c1	-4%	x	-1%	-4%	x	0%	x	x

Additional structures:
SMILES	NS1 function inh	Lassa entry inh	SARS PLP yeast	RE007 growth inh	Cruzain inh noDet	2A StopGo	Cruzain inh Det	Marburg entry inh
COc1cc(/C=C2\S/C(=N/S(=O)(=O)c3ccc(C)cc3)NC2=O)c([N+](=O)[O-])cc1OC	u	-21%	-7%	-5%[3.69 µM]	28%	-5%	u	0%
COc1cc(OC)cc(C(=O)NC(=S)NCCc2ccccc2)c1	19%	5%	u	-15%	6%	0%	-1.2%	0%
COC(=O)c1sc(S(=O)(=O)Nc2ccc3cn[nH]c3c2)c(C(=O)OC)c1C	0%	0%	0%	18%	-16%	61%[activator]	-4.3%	-6%&3%
C=CCc1cc(S(=O)(=O)c2ccc(O)c(CC=C)c2)ccc1O	19%	x	1%	-1%	x	32%	x	x
Cc1ccc(N/N=C2\CS(=O)(=O)N(C)c3ccsc32)cc1	x	7%[46.1 µM]	-2%	-15%	x	-11%	x	u
COc1ccc(C)cc1NC(=O)CN1CCN(S(=O)(=O)c2ccc(F)cc2)CC1	-3%	-3%	6%	-2%	-5%	-29%	-3.1%	3%
COc1cccc(/C=N/NC(=O)CNC(=O)c2cccnc2)c1O	4%	-24%[46.1 µM]	1%	8%	x	-5%	x	u
CSCCC(=O)NC1CC(C)(C)Cc2c1cnn2-c1ccccc1C (stereo unspecified)	-14%	x	-4%	2%	x	-7%	x	x
